Biofilm kill mix = clotrimazole potentiators killing C. albicans biofilm, primary screen, 4-compound mixtures | C. albicans biofilm persisters + clotrimazole, fluorescence viability; primary screen in compound mixtures of four per well | inhibition, % at 7.6 µM | actives 0.02% (n = 120,000) | AID 1242, 2008;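 active = inhibition above 30.3% in the primary screen of four-compound pools, then above 30% when the compound was retested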;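 also: compounds exposed to preformed 24 h biofilms for 48 h; the number belongs to the whole pool; some results filed as inactive read as strong as hits; inactives centre near 12; 0% = biofilm with clotrimazole alone and 100% = kill control; retested singly at about 60 µM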
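System: C. albicans CAF4-2 wild-type biofilms; Medium: RPMI/MOPS medium, pH 7.0; Reagent: Clotrimazole, 50 µg/mL; Times: biofilm formation 24 h, compound exposure 48 h, 37 °C; Detection: 2-h Alamar Blue fluorescence, 535/590 nm excitation/emission; Evaluation: percent inhibition of biofilm viability.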
An asterisk follows results filed as active.

SMILES	Biofilm kill mix
COc1ccc(-c2cc(C(F)(F)F)c3c(n2)sc2c(O)cc(=O)[nH]c23)c(OC)c1	12.9
COc1ccc(NC(=O)Nc2cccc(C(F)(F)F)c2)cn1	13.7
Oc1c(C2=NCCNC(C(F)(F)F)=C2)ccc2ccccc12	14.4
CCOc1cc(/C=N/NC(=O)c2cccnc2)ccc1OCC(N)=O	14.6
Nc1ccc(-c2cn3cccnc3n2)cc1	-0.3
CC(=O)c1cccc(NC(=O)N2CCC(c3ccc(C)cc3)C2)c1 (stereo not drawn)	20.0
O=C(N/N=C/c1cccs1)c1cc(-c2cccc3ccccc23)n[nH]1	18.9
O=C(N/N=C/c1cc(Br)cs1)c1c[nH]c2ccccc12	19.7
Cc1cccc(S(=O)(=O)NNC(=O)c2sc(C)nc2C)c1	9.4
CCOC(=O)C(C)Sc1ccc2nnc(CCNS(=O)(=O)c3ccccc3)n2n1 (stereo not drawn)	9.6
Cc1ccc(/C=N/N2CCN(C3c4ccccc4-c4ccccc43)CC2)s1	10.4
COc1ccc(-c2coc3cc(OC)cc(OC)c3c2=O)cc1	17.9
CN(C)S(=O)(=O)c1ccc(Cl)c(NC(=O)c2ccncc2)c1	10.4
O=C(Cc1ccc(Cl)cc1)NCC(=O)N1CCCCC1	13.9
O=[N+]([O-])c1cccc(-c2ccc(/C=N/Nc3nc(N4CCCCC4)nc(N4CCCCC4)n3)o2)c1	2.3
Cc1cc(C)c(NS(=O)(=O)c2ccc(NC(=O)CCC(=O)O)cc2)c(C)c1	5.5
CC1CN(Cc2ccccc2)c2nc3c(c(=O)[nH]c(=O)n3C)n2C1 (stereo not drawn)	23.5
CC1=CC(C)(C)N(C(=O)CN2C(=O)CCC2=O)c2ccccc21	1.0
CCCc1nc2sc3c(c2c(=O)n1NC(=O)CCC(=O)OC)CCCC3	27.4
O=C(CCc1nc2ccccc2c(=O)[nH]1)OCC(=O)N1CCc2ccccc21	12.8
COC(=O)c1ccc(S(=O)(=O)NCc2ccco2)o1	14.4
CCSc1ccccc1C(=O)NCc1cccnc1	7.5
CNCCC=C1c2ccccc2CCc2ccccc21	15.7
CC(=O)c1c(C)[nH]c(C(=O)OC(C)C(=O)Nc2cc(S(=O)(=O)N3CCCCC3)ccc2Cl)c1C (stereo not drawn)	10.4
CN1CCCC1CCNS(=O)(=O)c1ccc(Br)cc1 (stereo not drawn)	-6.0
CC(C)CCN=CC1=C(O)CC(c2ccccc2)CC1=O (stereo not drawn)	10.9
CN(C)CCNC(=O)C(=O)C1C(=O)Nc2ccccc21 (stereo not drawn)	8.4
CCOC(=O)c1c(-c2ccc(-c3ccccc3)cc2)csc1NC(=O)CCN1CCOCC1	14.4
CCCn1nnc(NC(=O)c2ccc(-c3cc(Cl)ccc3Cl)o2)n1	5.7
Cc1ccc(C(=O)N(CC(=O)Nc2ccc(Cl)c(Cl)c2)Cc2ccco2)cc1	1.4
CCOc1ccc(N2CC(C(=O)N/N=C/c3sccc3C)CC2=O)cc1 (stereo not drawn)	20.8
N/C(=N\OC(=O)COc1ccccc1)c1ccc(Cl)cc1	-15.2
CCOC(=O)CSc1nnc2cc(C)c3ccccc3n12	19.9
O=C1c2cccc3cccc(c23)C(=O)N1CCN1CCN(CC(O)COCc2ccc(Cl)cc2)CC1 (stereo not drawn)	13.6
Cc1cc(C(=O)N/N=C/c2ccc(-c3ccc(C)c(Cl)c3)o2)n[nH]1	18.4
CCN(CC)C(=O)C1CCCN(c2ccccc2[N+](=O)[O-])C1 (stereo not drawn)	4.7
CCCNC(=O)c1ccc(S(N)(=O)=O)cc1	1.9
O=S(=O)(c1ccc(NC(=S)NCCc2ccccc2)cc1)N1CCOCC1	15.1
CCOCCCNC(=O)C(NC(=O)c1ccc(NC(C)=O)cc1)c1ccc(OC)cc1 (stereo not drawn)	9.2
NS(=O)(=O)c1ccc(NC(=O)COC(=O)CCc2ccccc2)cc1	20.9
COc1ccccc1N1CN(CCc2ccccc2)CNC1=S	-1.4
COc1cc(NS(=O)(=O)c2ccc(NC(=S)NC(=O)c3sc4ccccc4c3Cl)cc2)ncn1	13.3
COc1ccccc1-n1cnnc1SCC(=O)c1c[nH]c2ccccc12	12.1
N#C/C(=C\c1ccc(N2CCOCC2)o1)C(=O)NCCc1ccccc1	22.8
CCOCCCNC(=S)NCCCNc1nc2ccc(C)cc2cc1C#N	12.8
C=CCN(CC=C)C(=S)Nc1cc(Cl)ccc1OC	8.2
Cn1c(CC(=O)Nc2ccccc2C(F)(F)F)c(Sc2ccccc2)c2ccccc21	13.5
c1ccc(CNc2nc(NCc3ccccc3)c3ccccc3n2)cc1	23.0
COc1cc(C(=O)N/C(=C\c2cn(S(=O)(=O)N(C)C)c3ccccc23)C(=O)NCCCO)cc(OC)c1OC	14.4
Cc1cc(-c2nnc(CCC(=O)N(CC3CCC3)CC3CCCO3)o2)no1 (stereo not drawn)	13.5
O=c1[nH]c(N2CCCCC2)nc2ncn(Cc3ccccc3)c12	24.4
COc1ccc(-n2c(SCC(=O)N/N=C(\C)c3cccnc3)nc3ccccc3c2=O)cc1	7.4
O=C(NC1CCS(=O)(=O)C1)c1ccc(S(=O)(=O)N2CCCCC2)cc1 (stereo not drawn)	12.3
COc1ccc(CSc2n[nH]c(C)n2)cc1[N+](=O)[O-]	11.7
CCOC(=O)N1CCC(NC(=O)C2CCN(C(=O)c3cc4sccc4n3CC)CC2)CC1	26.5
CC(=O)NC(=S)Nc1ccccc1N1CCN(C(=O)c2ccccc2)CC1	12.2
COc1ccc([N+](=O)[O-])cc1NC(=O)c1ccc(Br)s1	-5.3
Cc1onc(-c2ccccc2Cl)c1C(=O)OCc1cnc(Cl)s1	-32.2
Cc1cccn2cc(-c3ccc4c(c3)NC(=O)CO4)nc12	15.0
COc1ccc(/C=N/NC(=O)c2cccnc2)cc1CN1CCc2ccccc2C1	13.6
Next records.
SMILES	Biofilm kill mix
O=C(CNCc1ccc(Cl)cc1)NCc1ccco1	8.1
COC(=O)C1=C(C(=O)OC)[C@@H]2N(C)c3ccccc3[C@@]23C[C@@H](C(=O)OC)N(C(=O)COCc2ccccc2)C3=N1	11.8
C/C(=N\NC(=O)C1(C)CC1(Br)Br)c1cccc(NC(=O)C(C)(C)C)c1 (stereo not drawn)	14.3
S=C(N/N=C/c1cccc2ccccc12)Nc1cccc(Cl)c1	18.1
O=C(c1cccc([N+](=O)[O-])c1)N1CCN(C/C=C/c2ccccc2)CC1	13.7
O=C(Cc1n[nH]c(=O)c2ccccc12)NCc1ccccc1	8.2
CN(C)CCNC(=O)c1cccc(S(=O)(=O)Nc2ccccc2F)c1	28.7
CCC(=O)Nc1nnc(SCc2ccc(F)cc2)s1	17.1
CCCc1[nH]n(-c2ccc([N+](=O)[O-])cc2)c(=O)c1C=NCCc1ccc(OC)c(OC)c1	15.9
Cc1ccccc1N/N=C/c1sc(=O)n(Cc2cccc(C(=O)O)c2)c1Cl	-6.1
O=C(NC1CCCCC1)C(c1cccs1)N(C(=O)c1ccco1)c1ccc2c(c1)OCCO2 (stereo not drawn)	13.8
O=C(O)CNC(=O)/C(=C\c1ccc2c(c1)OCO2)NC(=O)c1ccc(Br)cc1	15.9
CC(=O)Nc1ccc(OCC(O)Cn2c3ccccc3c3ccccc32)cc1 (stereo not drawn)	14.9
O=C(/C=C/c1ccc(Cl)cc1Cl)NCCSCc1ccccc1	5.7
O=C(O)c1nn(CCOc2cccc(Cl)c2)c(=O)c2ccccc12	10.0
Cc1ccc2onc(CC(=O)O)c2c1	6.2
CCOc1ccccc1NC(=O)CCCn1cc([N+](=O)[O-])cn1	6.0
COc1ccc(/C(N)=N/OC(=O)CN(C)S(=O)(=O)c2ccccc2)cc1	15.2
OCC1(Cc2ccccc2)CCN(Cc2cnc(-c3ccc(Cl)cc3)nc2)CC1	17.6
CNS(=O)(=O)c1ccc(NC(=O)C2c3ccccc3Oc3ccccc32)cc1	7.7

Shown bar-delimited: part of the list above.
compound | Biofilm kill mix
O=C(CNCc1ccc(Cl)cc1)NCc1ccco1 | 8.1
COC(=O)C1=C(C(=O)OC)[C@@H]2N(C)c3ccccc3[C@@]23C[C@@H](C(=O)OC)N(C(=O)COCc2ccccc2)C3=N1 | 11.8
C/C(=N\NC(=O)C1(C)CC1(Br)Br)c1cccc(NC(=O)C(C)(C)C)c1 (stereo not drawn) | 14.3
S=C(N/N=C/c1cccc2ccccc12)Nc1cccc(Cl)c1 | 18.1
O=C(c1cccc([N+](=O)[O-])c1)N1CCN(C/C=C/c2ccccc2)CC1 | 13.7
O=C(Cc1n[nH]c(=O)c2ccccc12)NCc1ccccc1 | 8.2
CN(C)CCNC(=O)c1cccc(S(=O)(=O)Nc2ccccc2F)c1 | 28.7
CCC(=O)Nc1nnc(SCc2ccc(F)cc2)s1 | 17.1
CCCc1[nH]n(-c2ccc([N+](=O)[O-])cc2)c(=O)c1C=NCCc1ccc(OC)c(OC)c1 | 15.9
Cc1ccccc1N/N=C/c1sc(=O)n(Cc2cccc(C(=O)O)c2)c1Cl | -6.1
O=C(NC1CCCCC1)C(c1cccs1)N(C(=O)c1ccco1)c1ccc2c(c1)OCCO2 (stereo not drawn) | 13.8
O=C(O)CNC(=O)/C(=C\c1ccc2c(c1)OCO2)NC(=O)c1ccc(Br)cc1 | 15.9
CC(=O)Nc1ccc(OCC(O)Cn2c3ccccc3c3ccccc32)cc1 (stereo not drawn) | 14.9
O=C(/C=C/c1ccc(Cl)cc1Cl)NCCSCc1ccccc1 | 5.7
O=C(O)c1nn(CCOc2cccc(Cl)c2)c(=O)c2ccccc12 | 10.0

The results go on.
SMILES	Biofilm kill mix
O=c1c(-n2cncn2)c[nH]n1-c1cccc(Cl)n1	8.8
Cc1ccc(C(=O)NCC(=O)OCC(=O)Nc2cccc(S(=O)(=O)N3CCCC3)c2)cc1C	21.0
CCOC(=O)c1c(CC(C)C)csc1/N=C/C1=C(O)CCCC1=O	24.5
COc1ccc(/C=N/NC(=O)c2ccccc2O)cc1CSc1ccccn1	5.5
O=C(CCSc1nnc(-c2ccncc2)o1)Nc1cccc(Cl)c1	11.3
COc1ccc(/C=N/OCC(=O)Nc2cc(C)on2)cc1OC	-1.8
CCOC(=O)C(NC(=O)Nc1ccc(Cl)cn1)(Oc1ccc(F)cc1)C(F)(F)F (stereo not drawn)	11.6
CCc1nnc(NC(=O)CSc2nnc(-c3ccco3)o2)s1	8.4
CC1(C)CC(=O)C(C=Nc2ccc(N)cc2)=C(O)C1	3.0
N/C(=N\OC(=O)N1c2ccccc2Sc2ccccc21)c1ccccc1	7.2
Cc1c(N=c2scc(-c3ccccc3)n2C)c(=O)n(-c2ccccc2)n1C	13.4
O=C(CSc1nnc2ccccn12)NNC(=O)c1ccc(Br)cc1	10.5
CC(=O)c1ccccc1NC(=O)CN1C(=O)CS/C1=C\c1nc(-c2ccc(C)cc2)cs1	18.0
O=C(NCc1cccc(CNC(=O)C(=O)NCc2ccco2)c1)C(=O)NCc1ccco1	-4.2
CC(=O)c1sc(NCCOc2ccc(C)cc2)nc1C	24.6
CCc1ccccc1NC(=O)Nc1cccn(Cc2ccccc2F)c1=O	7.0
CC1(C)Cc2c(c(N3CCCC3)nc3sc4c(N5CCNCC5)ncnc4c23)CO1	8.2
N=C(N=C(N)N)N1CCc2ccccc21	0.8
CCc1cc(CNC(=O)CC2C(=O)NCCN2Cc2cccc(OC)c2)on1 (stereo not drawn)	9.8
CC(C)Oc1cccc(C(=O)NC2=NCCS2)c1	7.3
Cc1ccc(NC(=O)c2ccccc2NC(=O)CCC(=O)O)cc1	14.1
CCCCC(C(=O)O)C(C)CC(=O)NNC(=O)c1ccco1 (stereo not drawn)	1.0
O=C(O)C1CC=CCC1C(=O)NNc1ccccc1 (stereo not drawn)	12.8
Cc1nc2c3ccccc3n(Cc3ccccc3F)c2s1	14.7
Cc1ccc(S(=O)(=O)N2CCOCC2)cc1C(=O)NC(=S)N1CC(C)OC(C)C1 (stereo not drawn)	15.9
CCC(CC)=C(C#N)C(=O)NC1CCCCC1	8.7
COc1cc(C=C(c2nc3ccccc3s2)c2nc3ccccc3s2)cc(OC)c1O	11.4
CCCn1c(=O)[nH]c(=O)c2c1nc(-c1cccs1)n2CCOC	13.4
Cc1ccc(-c2[nH]c(-c3ccccc3)nc2SCC(=O)NCC2CCCO2)cc1 (stereo not drawn)	1.9
O=C(NNC(=O)c1cccs1)c1ccc([N+](=O)[O-])cc1	4.1
Cc1ccc(NC(=O)CN2C(=O)c3ccccc3C2=O)nc1	13.7
COc1cccc(NC(=O)C(Cc2ccccc2)n2cccc2)c1 (stereo not drawn)	26.7
O=C(/C=C/c1cn(-c2ccccc2)nc1-c1cccs1)NCCN1CCOCC1	21.9
N=C1SC(c2ccccc2)C(=O)N1c1ncc(Cc2ccccc2Cl)s1 (stereo not drawn)	15.9
c1ccc2c(c1)nc1n2CC2CON(C3CCCCC3)C12 (stereo not drawn)	1.9
COC(=O)COc1ccc(/C=C2/NC(=O)N(CC(=O)OC)C2=O)cc1	15.6
Cc1nc(SC(C(N)=O)c2ccccc2)c(C#N)c(C)c1C (stereo not drawn)	16.4
CCOC(=O)N/N=C1\CCc2ccccc21	6.1
CC(=O)Sc1nc(-c2ccccc2)[nH]c1S(=O)(=O)c1ccc(C)cc1	6.3
CCOc1ccc(N2C(=O)CC(SCC(=O)O)C2=O)cc1 (stereo not drawn)	11.1
Cc1ccccc1OCCn1cnc2cc([N+](=O)[O-])ccc2c1=O	16.4
NC(=O)c1ccc(N=Cc2ccc([N+](=O)[O-])s2)cc1	18.2
Cc1ccc(-c2nn(C(C)(C)C)c3ncnc(NS(=O)(=O)c4ccc([N+](=O)[O-])cc4)c23)cc1	1.2
O=C(CN1CCCC1)Nc1ccccc1Sc1ccc(Cl)cc1	0.2
COc1ccc(/C=N/N=C2/C(=O)Nc3ccccc32)cc1O	32.4
CCN(CC)C(=O)c1ccccc1NS(C)(=O)=O	-10.1
CCC(CC)C(=O)c1c[nH]c(C(=O)NCc2cccs2)c1	13.8
C=CCn1c(CCCNC(=O)CCC)nc2ccccc21	18.7

Bioassay records (PubChem)

Not all compounds are listed; the hit share may differ from the screen's.
